Bfl-1 A1 inh: inhibitors of the anti-apoptotic protein A1, read as caspase activation. MEF A1-2A-BIM cells, Caspase-Glo 3/7 luminescence, 3 h; percent of clofoctol response, vehicle zero. caspase activation, % (concentration not given with the values). 0.066% of 330,000 active;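 active = over half of replicate activation scores above 10%, or exactly half above 10 with the replicate mean above 10; inconclusive = replicate mean below 10 yet half the replicates above 10; inactive = over half of replicates below 10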;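 also: wells of about 30 µL received 50 nL stock; many hits fall short of the cut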
Vif TR-FRET: inhibitors of Vif binding to APOBEC3G peptide, primary screen, biochemical, TR-FRET, GST-Vif 1-94, biotin-A3G peptide, dose response retest (AID 1117319); TR-FRET GST-Vif / biotin-A3G peptide binding; higher % means a stronger effect; test concentration not given here; strong numbers were not always called active; one-dose inhibition, %; IC50 in µM for titrated hits; 0.57% of 260,000 active;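 active = above the screen mean plus three standard deviations and confirmed in dose response; inconclusive = results disagree or hit not tested in dose response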;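 also: Vif residues 1-94 fused to GST binding biotinylated APOBEC3G peptide 110-148; 0% = full assay without inhibitor and 100% = GST in place of GST-Vif; retest series ran down from 100 µM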
RanGTP-Impb inh: disruptors of Ran-importin-beta complex formation – biochemical, FRET, CFP-Ran, YFP-importin-beta, homogeneous, primary screen | cell-free CFP-Ran/YFP-importin-beta FRET ratio | inhibition, % (concentration not given with the values) | 1.1% of 300,000 active;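 active = most replicates above 15%; inconclusive = exactly half above 15%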;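 also: 0% = DMSO wells and 100% = Ran loaded with GDP instead of GTP; wells of about 40 µL received 100 nL stock; the first replicate is given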
AF4-AF9 inh: MLL-AF4/AF9 protein interaction inhibition; P42568; AlphaScreen, biotin-AF4 peptide binding to FLAG-AF9; 0.47% of 350,000 active; inhibition, % at 10 µM;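 active = every replicate reaching a set inhibition limit, whatever the replicate mean, cut at about 25% in these data; inconclusive = mean inhibition reaches that limit but some replicates miss it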;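 also: 0% = plate neutral control median and 100% = total signal loss; the record names both 10 and 1 µM as test concentration; the first replicate is given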
Beta apoptosis: blocks beta cell apoptosis; protection from apoptosis, % (test concentration not listed); 0.8% of 300,000 active; INS-1E cytokine-induced death, ATP luminescence, 48 h; percent of positive-control rescue, neutral wells zero;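 active = all replicates at 75% or more, or half of them and the mean; inconclusive = half reach 75% but not the mean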;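 also: 0% = cytokine-treated negative control wells and 100% = positive control rescue; higher means more ATP so stronger rescue from cytokine killing; wells of about 40 µL received 100 nL stock; the first replicate is given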
Calb FLC: affects C. albicans growth with fluconazole; C. albicans CaCi-2 (fluconazole-resistant clinical isolate) + fluconazole, Alamar Blue growth, 48 h; growth inhibition, % (test concentration not listed); 0.57% of 300,000 active; AID 1979;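 active = most replicates above 75%; inconclusive = exactly half above 75%; inactive = most below 75%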;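 also: all wells also contain fluconazole at 8 µg/ml as a sub-toxic cotreatment; 0% = median of DMSO wells and 100% = median of geldanamycin control wells; wells of about 8 µL received 7.5 nL stock; the first replicate is given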
T cruzi inh: T. cruzi replication inhibition; T. cruzi beta-gal in NIH3T3, luminescence, 90 h; inhibition, % (no concentration beside the values); 1.4% of 300,000 active;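 active = mean inhibition across valid replicates above about 55%, limit read from the data; inconclusive = mean below that limit but half or more replicates reach it; inactive = mean below it, under half of replicates reach it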;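 also: signal also drops with host cell toxicity which is not excluded here; 0% = plate median of DMSO wells and 100% = zero luminescence signal; higher percent means less beta-gal luminescence so fewer parasites; stock transfer was 50 nL into about 50 µL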
LANA-H2A inh: blocks KSHV LANA binding to histone H2A/H2B. Q9QR71. cell-free LANA-H2A/H2B peptide, fluorescence polarization. inhibition, % (no concentration beside the values). 0.6% of 320,000 active; in the data active = inhibition mostly above about 10%, no sharp cut-off; inactive = mostly below about 6.7%;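 also: stock transfer was 7.5 nL into about 10 µL; 0% = median of vehicle wells and 100% = median of positive control wells; one replicate is shown; the record names a cut of 25% in any replicate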
Target sequence (Q9QR71 whole entry, looked up): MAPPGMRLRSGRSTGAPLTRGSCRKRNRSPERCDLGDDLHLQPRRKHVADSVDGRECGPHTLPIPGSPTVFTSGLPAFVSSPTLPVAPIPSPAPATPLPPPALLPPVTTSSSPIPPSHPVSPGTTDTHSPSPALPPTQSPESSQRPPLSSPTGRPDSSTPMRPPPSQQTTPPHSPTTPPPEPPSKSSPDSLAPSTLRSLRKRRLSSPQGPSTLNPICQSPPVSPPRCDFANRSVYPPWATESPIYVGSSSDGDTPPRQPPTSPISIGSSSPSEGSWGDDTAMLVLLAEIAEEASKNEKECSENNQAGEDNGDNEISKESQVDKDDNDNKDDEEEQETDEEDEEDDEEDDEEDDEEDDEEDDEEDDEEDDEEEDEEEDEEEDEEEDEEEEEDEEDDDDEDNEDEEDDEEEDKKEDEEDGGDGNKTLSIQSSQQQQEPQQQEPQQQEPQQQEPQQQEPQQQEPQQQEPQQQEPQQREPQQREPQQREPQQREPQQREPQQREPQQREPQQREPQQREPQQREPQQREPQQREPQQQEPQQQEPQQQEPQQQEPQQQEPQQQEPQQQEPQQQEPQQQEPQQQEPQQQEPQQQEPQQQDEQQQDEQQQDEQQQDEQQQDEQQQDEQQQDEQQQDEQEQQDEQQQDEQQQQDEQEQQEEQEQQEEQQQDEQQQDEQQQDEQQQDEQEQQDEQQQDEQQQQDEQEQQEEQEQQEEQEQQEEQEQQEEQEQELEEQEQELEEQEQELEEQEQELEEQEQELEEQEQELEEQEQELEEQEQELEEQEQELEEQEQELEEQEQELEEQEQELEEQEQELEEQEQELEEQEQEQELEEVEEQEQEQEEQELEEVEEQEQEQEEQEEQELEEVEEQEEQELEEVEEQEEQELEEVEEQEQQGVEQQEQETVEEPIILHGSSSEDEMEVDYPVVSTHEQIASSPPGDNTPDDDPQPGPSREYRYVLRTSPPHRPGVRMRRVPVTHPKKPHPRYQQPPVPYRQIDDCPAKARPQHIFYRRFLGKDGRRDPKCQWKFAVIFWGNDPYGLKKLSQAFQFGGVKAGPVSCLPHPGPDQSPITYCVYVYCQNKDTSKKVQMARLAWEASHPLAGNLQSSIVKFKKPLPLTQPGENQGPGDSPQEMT
Active calls of the source: *; ? = inconclusive; nt = not tested or not shown.

SMILES	Bfl-1 A1 inh	Vif TR-FRET	RanGTP-Impb inh	AF4-AF9 inh	Beta apoptosis	Calb FLC	T cruzi inh	LANA-H2A inh
CC(=O)c1ccc(N2CCN(c3ccccc3O)CC2)c([N+](=O)[O-])c1	-0.9	nt	-2.7	13	0	19	-12	2.7
CCn1cc(C(C)NC(=O)Nc2ccc3c(c2)OCO3)c(C)n1 (stereo not given)	0.8	0%	-1.3	0.5	0	4	-9	-8.9
CCOC(=O)C1(CCOC)CCN(Cc2nc(-c3cccs3)oc2C)CC1	1.2	-9%	3.4	2.3	-3	-44	3	-4.1
CN1CCN(C(=O)c2ccc3c(c2)N(Cc2ccc(Cl)cc2)C(=O)c2ccccc2S3=O)CC1 (stereo not given)	-1.5	14%	?	1.1	-3	13	-19	-4.6
O=C(COC(=O)c1ccco1)NCCc1ccc(Cl)cc1	-0.9	8%	nt	-1.9	-1	nt	nt	2.3
COc1cc2c(cc1OC)C(c1cccc(Br)c1)CC(=O)N2 (stereo not given)	0.7	nt	0.0	5.4	-7	-2	-4	2.9
COc1ccccc1-c1nc2ccccc2nc1-c1ccccc1OC	0.5	nt	2.6	nt	nt	47	7	0.9
CCOc1ccccc1C1C(C#N)=C(N)Oc2n[nH]c(CC)c21 (stereo not given)	0.3	-3%	-3.5	-50	-7	0	-25	5.0
CC(=O)Oc1ccc(/C=C(\NC(=O)c2ccco2)C(=O)NCc2ccco2)cc1	-0.9	11%	0.2	-2.8	1	4	-13	-2.1
CCC(=O)c1ccc(O)c(CC=C(C)C)c1	0.5	-2%	-0.7	nt	-11	8	4	-0.7
OC(CN1CCN(c2ccccn2)CC1)Cn1c2ccccc2c2ccccc21 (stereo not given)	-0.3	-2%	12	4.0	10	21	46	-0.6
Cc1noc(C)c1NC(=O)N(C)C[C@H]1Oc2c(NC(=O)Nc3ccccc3)cccc2C(=O)N([C@H](C)CO)C[C@@H]1C	0.2	nt	nt	3.0	-4	nt	nt	-5.8
CCCC1CCC(=C(C#N)C(N)=O)CC1 (stereo not given)	0.8	nt	5.2	-0.9	-5	-18	-10	-1.1
Cc1ccc(NCc2cccnc2)c(Br)c1	-0.3	nt	1.6	1.7	-6	0	-4	1.0
Cc1ccccc1-c1nc(CN2CCC(C(=O)NCCC3=CCCCC3)CC2)c(C)o1	-0.2	8%	1.9	nt	6	5	27	-1.4
COc1ccc(NC(=O)CN2C(=O)N(C)Cc3ccccc32)c(C)c1	0.3	nt	0.2	-1.7	-16	45	-11	2.7
CCOC(=O)c1cc2c(C)n(-c3ccc(C)cc3)c(C)c2ccc1=O	-0.1	22%	-2.6	nt	6	59	11	1.1
Cc1cc(NC(=O)C2CCCN2C(=O)Nc2c(C)cccc2C)ccc1-n1cnnn1 (stereo not given)	1.0	11%	?	nt	-1	-6	-19	0.1
O=c1c2ccccc2cnn1-c1nc2ccccc2[nH]1	nt	1%	-0.7	1.1	nt	41	-12	nt
Cc1c(NC(=O)c2ccccc2NS(=O)(=O)c2ccc(Br)cc2)c(=O)n(-c2ccccc2)n1C	-0.5	-2%	-4.6	nt	nt	-5	-5	-2.3
Cc1cc(NC(=O)CSCc2ccccc2C)no1	1.1	9%	-3.7	-0.9	-6	4	-9	-3.0
O=C(Cn1c(CO)nc2ccccc21)NCCc1ccc(F)cc1	0.3	nt	4.0	-1.4	8	-2	-11	9.4
Cc1oc2c(c(C)cc3oc(=O)c(CC(=O)N[C@@H](C)C(=O)O)c(C)c32)c1C	-1.2	4%	-0.3	0.4	7	13	-9	-3.0
CCCNc1nc2ccccc2n2c(C)nnc12	0.7	-1%	-1.6	-0.3	-10	2	0	-1.6
C=CCNC(=O)c1sc(-c2ccccc2)nc1C	-0.7	2%	3.2	1.1	0	-2	-11	-2.5
OCCC1CN(Cc2cccc(O)c2)CCN1CCc1ccccc1 (stereo not given)	0.0	nt	5.5	3.0	-6	-35	-12	-0.8
C/C=C/c1ccc(Oc2nnnn2-c2ccc(C(N)=O)cc2)c(OC)c1	-0.1	2%	?	nt	nt	15	-11	-1.6
O=C(CSc1nc(-c2ccccc2)cs1)NC(=O)NCc1ccco1	-0.8	?	-1.6	nt	1	7	19	1.0
O=S(=O)(Cc1ccccc1)NCC1CCCN(Cc2cccc3nonc23)C1 (stereo not given)	-0.2	7%	?	4.6	-2	0	4	5.2
CC1CCCCN1CCNC(=O)CN1C(=O)CSc2ccc(S(=O)(=O)N3CCCCC3)cc21 (stereo not given)	0.4	nt	6.5	3.5	-2	5	49	3.3
CCn1cc(C(=O)Nc2cccc(NC(C)=O)c2)c2cc(OC)c(OC)cc2c1=O	0.9	-13%	0.0	nt	0	7	-7	-3.4
O=C(O)/C=C\C(=O)Nc1ccc(OC(F)F)cc1	0.6	-2%	1.8	-0.6	0	-2	-5	-3.1
CC(=O)NS(=O)(=O)c1ccc(NC(=S)NC(=O)C(C)(C)C)cc1	0.8	-3%	12	nt	-5	-6	-21	9.8
CSc1ccccc1NC(=O)COC(=O)CCc1ccccc1	-0.7	nt	-1.0	0.9	-2	-5	-4	-3.2
Cc1nc2sc(C(c3cccs3)N3CC(C)CC(C)C3)c(O)n2n1 (stereo not given)	0.6	13%	0.3	-3.5	-4	14	-11	3.5
CCCS(=O)(=O)N1CCN(C(=O)c2ccco2)CC1	-0.1	2%	-5.1	nt	-5	0	-2	6.9
Cc1ccc(C(=O)NC(=S)Nc2ccc(N3CCOCC3)cc2)c(C)c1	0.9	6%	0.2	2.3	1	-10	18	-3.1
CC(CN(C)C)CN1c2ccccc2CCc2ccccc21 (stereo not given)	-0.7	?	?	4.6	-4	nt	-4	-1.0
CC(Sc1nnc2ccccn12)C(=O)NCc1ccc2c(c1)OCO2 (stereo not given)	0.6	-1%	0.1	-0.9	0	37	-5	14
COc1ccc(S(=O)(=O)N/N=C\c2ccc([N+](=O)[O-])o2)c(OC)c1	0.1	3%	-0.2	-2.6	-2	-3	9	6.7
CC1CCC(NC(=O)c2ccc(CS(=O)(=O)Cc3ccccc3F)o2)CC1 (stereo not given)	0.3	20%	-2.2	nt	-6	8	3	3.6
O=C(CCN1C(=O)c2ccncc2C1=O)NCc1ccc(Cl)cc1	1.6	24%	0.6	nt	nt	0	11	4.4
CCc1ccc(-n2nnnc2SCC(=O)Nc2ccc(NC(C)=O)cc2)cc1	0.5	nt	1.6	1.0	nt	6	55*	-3.4
CCN(CC)CCNC(=O)c1ccc(NC(=O)Cc2cccc3ccccc23)cc1	0.7	nt	-1.8	0.2	-3	-2	18	1.1
COc1cc(C(=O)NNC(=O)c2cc(=O)[nH]c3ccccc23)cc(OC)c1OC	-1.0	3%	-0.7	1.5	1	12	-6	1.1
COc1ccccc1N1CCN(C2CCCN(C(=O)c3ccoc3)C2)CC1 (stereo not given)	-0.5	nt	12	0.4	-7	9	-3	1.7
CCOc1ccc(N(CC(=O)Nc2ccccc2OC)S(=O)(=O)c2ccccc2)cc1	-0.5	nt	-2.2	-0.5	16	-6	0	-1.5
COc1ccccc1CNC(=O)COC(=O)C1CCN(S(=O)(=O)c2ccccc2)CC1	0.1	-14%	2.3	0.1	nt	2	-4	-2.2
COc1ccc(CC(=O)N2CCN(c3cccc(C)c3C)CC2)cc1	0.6	nt	?	4.5	2	5	-9	-2.3
Cc1c(NS(=O)(=O)c2ccc3c(c2)NC(=O)CC(=O)N3)cccc1[N+](=O)[O-]	0.1	nt	-1.0	-2.9	-18	-6	28	0.4
CC(=O)Nc1ccc2c(c1)N(S(=O)(=O)c1cccs1)CCC2	0.8	7%	-2.9	-11	-1	11	-3	-1.6
O=C1CCCN1CCCNC(=S)Nc1ccc(F)cc1	0.3	-5%	-1.6	1.1	-3	-4	-10	0.2
Cc1ccc(Oc2coc3cc(O)ccc3c2=O)cc1	-1.5	-8%	2.1	1.0	-5	2	-6	0.1
C#CCOC(=O)Nc1cnccc1C(F)(F)F	?	-9%	-1.3	nt	-8	-9	-12	-0.4
C(=N\c1nc2ccccc2[nH]1)/c1cccs1	0.7	-1%	nt	6.3	-2	12	1	-0.9
COC(=O)c1[nH]c(C)c(/C(O)=C2\C(=O)C(=O)N(CCN(C)C)C2c2cccc(OC)c2OC)c1C (stereo not given)	1.0	22%	6.3	nt	nt	-7	-23	3.1
CCOc1ccc(C2C(C(=O)c3ccco3)=C(O)C(=O)N2CCN(C)C)cc1 (stereo not given)	nt	4%	-1.7	nt	nt	3	0	nt
Cc1cc(C)cc(NC(=S)NCCN(C2CCCCC2)C2CCCC2)c1	0.1	nt	-0.9	0.8	5	-1	22	6.5
CSc1nc(-c2ccc(Cl)cc2)nc(N)c1C#N	-0.6	-29%	1.1	0.5	11	2	-24	-5.1
CCCn1cnc2sc(CC)cc2c1=O	0.7	-6%	-2.1	nt	-3	7	-4	0.1
(cont.)
SMILES	Bfl-1 A1 inh	Vif TR-FRET	RanGTP-Impb inh	AF4-AF9 inh	Beta apoptosis	Calb FLC	T cruzi inh	LANA-H2A inh
CCOC(=O)C1C(=O)CC(C)(O)C(C(=O)OCC)C1c1ccco1 (stereo not given)	0.3	7%	-0.2	nt	4	5	-9	-1.1
O=C1NCCN/C1=C\C(=O)c1ccc(Cl)cc1	-2.4	9%	-1.2	nt	0	-21	1	-0.1
Cc1ccc(NC(=O)CSc2nnc(Cc3csc(C)n3)o2)cc1	-0.2	?	nt	-7.9	-5	nt	nt	4.4
Cc1cccc(C)c1N1C(=O)CN(Cc2ccccc2)C1=S	0.2	-3%	-1.7	-0.2	-5	-3	19	2.0
Cc1c(N=C/C=C/c2ccccc2)c(=O)n(-c2ccccc2)n1C	-0.7	1%	-4.0	nt	-3	-10	5	-5.2
CC1CC(CC(=O)NC(=S)Nc2ccccc2Cl)C(=O)O1 (stereo not given)	-0.2	nt	1.4	-1.4	-3	-6	-12	3.5
Cc1cccc(CCNC(=O)CN(C)S(=O)(=O)c2cnc[nH]2)c1	1.4	5%	0.2	nt	-9	-1	-8	2.7
CCC(CC)C(=O)N1CCN(c2ccccc2)CC1	-0.3	?	?	3.2	-1	8	-21	-1.7
COc1ccc(-n2nc(C)c3c(=O)c4c([nH]c32)CCCC4)cc1	-0.3	-1%	-3.1	0.1	1	2	62*	2.9
COc1ccc(C2CC(c3ccc(C)o3)=NN2C(C)=O)cc1 (stereo not given)	-0.9	nt	7.0	2.5	0	-14	7	1.0
COc1ccc(-c2nn(CC(=O)Nc3ccc(Cl)c(Cl)c3)c(=O)c3ccccc23)cc1	-0.3	-19%	?	nt	-9	-1	2	1.2
COc1ccc(/C(C)=N/NC(=O)CN(c2ccc(OC)cc2)S(=O)(=O)c2ccccc2)cc1	0.1	-3%	2.3	1.0	6	-7	0	0.4
Nc1c(C(=O)N2CCCCC2)sc2nc3c(cc12)CCCC3	-0.9	nt	2.0	3.5	-2	3	2	-10
CCc1ccccc1N1C[C@@]23C=C[C@@H](O2)C(C(=O)OCC(C)C)[C@H]3C1=O (stereo not given in full)	-0.1	-1%	-4.3	nt	-1	-5	6	-5.0

Screening data as filed in PubChem.
